Screens (PubChem BioAssay)
AF4-AF9 inh: inhibitors of human MLL-AF4/AF9 interaction. inhibition, % at 10 µM. 0.47% of 350,000 active. AlphaScreen, biotin-AF4 peptide binding to FLAG-AF9. AID 651704;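 active means every replicate reaching a set inhibition limit, whatever the replicate mean, cut at about 25% in these data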;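 further: 0% = plate neutral control median and 100% = total signal loss; the record names both 10 and 1 µM as test concentration; the first replicate is given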
Target sequence (P42568 whole entry, looked up): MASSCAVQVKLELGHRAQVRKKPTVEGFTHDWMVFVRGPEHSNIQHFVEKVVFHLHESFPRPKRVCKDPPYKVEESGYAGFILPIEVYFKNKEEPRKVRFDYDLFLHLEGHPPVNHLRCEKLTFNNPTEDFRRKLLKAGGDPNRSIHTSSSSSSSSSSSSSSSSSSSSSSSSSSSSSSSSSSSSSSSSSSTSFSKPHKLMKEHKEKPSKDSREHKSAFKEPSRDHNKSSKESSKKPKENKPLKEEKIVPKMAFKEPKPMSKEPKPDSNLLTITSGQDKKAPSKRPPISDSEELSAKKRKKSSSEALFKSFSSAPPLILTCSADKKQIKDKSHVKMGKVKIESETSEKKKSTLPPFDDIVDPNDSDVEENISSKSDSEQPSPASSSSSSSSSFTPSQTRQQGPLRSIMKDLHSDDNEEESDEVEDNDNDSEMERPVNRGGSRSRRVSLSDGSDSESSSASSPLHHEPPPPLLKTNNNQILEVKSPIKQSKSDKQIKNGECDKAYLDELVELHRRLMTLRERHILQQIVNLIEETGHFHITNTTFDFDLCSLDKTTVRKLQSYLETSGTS
UCH37 DUB inh: human UCH37 deubiquitinating enzyme inhibition. 0.33% of 330,000 active. purified proteasome/UCH37, Ub-AMC cleavage fluorescence. AID 588478. inhibition, % (test concentration not listed);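 active means mean of two replicates above 20%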;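 further: 0% = compound-free wells with enzyme and 100% = wells lacking proteasome; stock transfer was 100 nL into about 20 µL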
Target sequence (Q9Y5K5 whole entry, looked up): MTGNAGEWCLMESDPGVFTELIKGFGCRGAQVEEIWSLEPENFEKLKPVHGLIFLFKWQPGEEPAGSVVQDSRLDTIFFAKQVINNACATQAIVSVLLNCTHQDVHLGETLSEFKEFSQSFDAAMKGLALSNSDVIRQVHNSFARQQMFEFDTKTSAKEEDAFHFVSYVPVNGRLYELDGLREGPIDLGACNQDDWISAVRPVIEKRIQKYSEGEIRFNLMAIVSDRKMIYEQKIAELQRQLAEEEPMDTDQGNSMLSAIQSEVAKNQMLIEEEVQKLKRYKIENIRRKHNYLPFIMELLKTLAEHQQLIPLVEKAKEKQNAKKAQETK
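Material: human UCH37 enzyme supplied as purified proteasome complex / Amount: 0.15 nM proteasome as dispensed / Buffer or medium: pH 7.4 Tris-HCl (50 mM) with ovalbumin, ATP-MgCl2, DTT / Times: preincubation 30 min, reaction 25 min, room temperature / Technique: AMC fluorescence from Ub-AMC cleavage, excitation 355 nm, emission 460 nm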
FGF22 binding: binders of recombinant human FGF22 by thermal shift; SYPRO orange fluorescence; percent of sucrose octasulfate shift, DMSO zero; calls only at 9.99 µM; 1.5% of 340,000 active; AID 651658;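 active means melting point raised past a set limit in the mean and every replicate; three in four hits are not shown here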
Target sequence (Q9HCT0 whole entry, looked up): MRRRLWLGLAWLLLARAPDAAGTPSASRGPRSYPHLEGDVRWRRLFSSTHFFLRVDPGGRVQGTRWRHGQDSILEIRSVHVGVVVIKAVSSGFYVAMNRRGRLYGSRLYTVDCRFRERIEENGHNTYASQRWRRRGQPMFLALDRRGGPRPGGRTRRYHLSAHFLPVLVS
Ecoli growth: E. coli growth inhibition. Escherichia coli growth, OD600, 23 h; stronger effect = lower value. OD600 absorbance (no concentration beside the values). 0.21% of 330,000 active. AID 1053175;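 active means OD600 absorbance below the run mean of sample wells minus 3.6 SD, in any replicate, cut at about 0.56 in these data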;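 further: stock transfer was 300 nL into about 60 µL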
rRNA inh HTS: selective bacterial rRNA inhibition in E. coli; E. coli WT GFP vs humanized-ribosome RFP mutants, fluorescence, 24 h; stronger effect = lower value; DMSO median 0, no signal -100; GFP signal change (wild-type ribosome), % (test concentration not listed); 1.6% of 350,000 active; AID 720706;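 active means significant combined selectivity score with lowered wild-type GFP, culture density cut under 30%, mutant RFP and density less affected; inactive means any of these conditions unmet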; further: one replicate is shown; some compounds called inactive have numbers as strong as hits
T cruzi inh: blocks replication of Trypanosoma cruzi | T. cruzi beta-gal in NIH3T3, luminescence, 90 h | inhibition, % (concentration not given with the values) | 1.4% of 300,000 active;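 active means mean inhibition across valid replicates above about 55%, limit read from the data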;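 further: signal also drops with host cell toxicity which is not excluded here; 0% = plate median of DMSO wells and 100% = zero luminescence signal; higher percent means less beta-gal luminescence so fewer parasites; stock transfer was 50 nL into about 50 µL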
Bfl-1 A1 inh: inhibitors of the anti-apoptotic protein A1, read as caspase activation | MEF A1-2A-BIM cells, Caspase-Glo 3/7 luminescence, 3 h; percent of clofoctol response, vehicle zero | caspase activation, % (test concentration not listed) | 0.066% of 330,000 active | AID 2462;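 active means over half of replicate activation scores above 10%, or exactly half above 10 with the replicate mean above 10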;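 further: wells of about 30 µL received 50 nL stock; many hits fall short of the cut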
Beta apoptosis: beta cell apoptosis inhibition; INS-1E cytokine-induced death, ATP luminescence, 48 h; percent of positive-control rescue, neutral wells zero; protection from apoptosis, % (concentration not given with the values); 0.8% of 300,000 active; AID 435005;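 active means all replicates at 75% or more, or half of them and the mean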;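 further: 0% = cytokine-treated negative control wells and 100% = positive control rescue; higher means more ATP so stronger rescue from cytokine killing; wells of about 40 µL received 100 nL stock; the first replicate is given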
rRNA inh HTS OD600: further read-out of rRNA inh HTS, marked with its call; OD600 change, %; measured here: OD600 growth;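 optical density of the mix in the first replicate; 0 = DMSO median and -100 = no signal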
rRNA inh HTS RFP: second read-out of rRNA inh HTS, no call of its own (marks repeat the call); RFP signal change, %; measured here: RFP humanized mutant strains;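 first replicate; 0 = DMSO median and -100 = no signal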
Starred values were filed as active, the others as inactive; i = inactive; / = not tested or not shown; + = active, no number; & = joins results of further samples. Only part of the results is shown; count on the stated rates, not on these rows.

Structure,AF4-AF9 inh,UCH37 DUB inh,FGF22 binding,Ecoli growth,rRNA inh HTS,rRNA inh HTS OD600,rRNA inh HTS RFP,T cruzi inh,Bfl-1 A1 inh,Beta apoptosis
COc1ccccc1NS(=O)(=O)c1cn(C)cn1,-8.8,1.9,i,0.69,4,4,-3.3,0,-0.1,-8
COc1ccc(C(=O)NCc2cccnc2)cc1S(=O)(=O)N1CCCc2ccccc21,1.0,2.0,/,0.69,-24,-38,0.1,15,-0.8,7
O=C(C1Cc2ccccc2CN1S(=O)(=O)c1ccc(F)cc1)N1CCCCCC1 (centres undefined),/,-0.3,/,0.72,/,/,/,1,0.1,2
Cc1ncc(CO)c2c1Oc1nc(-c3ccccc3)nc(SCC(=O)N3CCOCC3)c1C2,2.2,0.7,i,0.71,4,22,6.3,-6,0.8,1
OCc1ccc(N=Nc2ccccc2)cc1,7.0,5.6,i,0.59,-17,-11,-1.2,5,-6.6,0
COc1ccc(C(=O)Nc2ccc(O)cc2C(=O)O)cc1,13,2.4,/,0.68,-5,-1,-1.1,4,-5.1,0
O=c1[nH]c2ccc(Br)cc2c(-c2ccccc2)c1CN1CCOCC1,3.7,4.9,i,0.67,-7,-18,-2.1,0,0.5,-13
O=C(NCCc1ccccc1)C1CCN(S(=O)(=O)c2cccc3nonc23)CC1,/,1.8,/,0.79,/,/,/,10,-0.6,2
O=S(=O)(NCC1(N2CCOCC2)CCCCC1)c1ccccc1Cl,0.6,3.5,i,0.66,7,4,1.0,-7,-0.9,4
CCOC(=O)C(=CNc1cc(C)nn1-c1ccc(Cl)cc1)C(=O)OCC,/,-61,/,0.74,/,/,/,17,-0.5,-2
Cc1[nH]c(=O)[nH]c(=O)c1Sc1ccccc1[N+](=O)[O-],-5.1,6.7,i,0.67,1,15,-1.7,-6,0.6,-2
O=C(COc1ccccc1)NCC(=O)NC1CCCCC1,-1.4,2.8,+,0.73,11,8,4.1,2,0.4,-2
O=C(c1ccccc1NS(=O)(=O)c1ccc(F)cc1F)N1CCCCC1,-2.5,-1.3,i,0.7,-4,0,1.2,/,-0.7,-4
CCOC(=O)C1=C(CBr)NC(=O)NC1C (centres undefined),0.5,0.7,i,0.66,14,13,16,-8,0.4,-2
Cc1cc(C)c(C)c(S(=O)(=O)NCC(=O)NCC2CCCCC2)c1C,1.0,1.4,i,0.65,-58,-78,-18,12,0.6,-8
S=c1nc[nH]c2c1ncn2-c1ccccc1,-3.8,-0.3,i,0.68,20,23,1.7,/,/,/
Cc1oc(S(=O)(=O)N2CCCCC2)cc1NC(=O)Nc1ccc(F)cc1,/,0.4,i,0.65,9,3,-0.3,8,-0.3,-1
COc1ccccc1N1CCN(/N=C/c2ccc(Cl)c([N+](=O)[O-])c2)CC1,14,/,i,/,-8,1,-1.9,9,-2.1,/
N#CC1=C(N)NC(=S)C(C(N)=O)C1c1ccccc1F (centres undefined),-20,6.8,i,0.69,15,10,0.9,-16,0.5,2
CC(/C=C/c1ccco1)=N\NC(=O)c1cc(Cl)ccc1O,-2.1,/,i,/,/,/,/,-36,-0.5,1
Cc1nc(C)c(Oc2cccc(C(F)(F)F)c2)c(=O)[nH]1,-3.1,1.9,i,0.67,8,6,-1.4,/,-0.8,-2
COc1ccc(/C=N/NC(=S)N[C@H]2CC3CCC2C3)cc1 (some centres undefined),8.5,/,i,/,-3,-4,2.8,28,0.5,-4
CN(C)c1ccc(/C=C/c2nc3ccccc3c(=O)n2-c2ccc(C(=O)O)cc2)cc1,-5.6,12,i,0.65,73,-9,-5.4,-4,0.6,1
O=C(CCNC(=O)c1ccco1)Nc1ccc(OC(F)(F)F)cc1,-0.8,2.3,i,0.63,2,-11,19,5,0.5,0
COc1c2occc2cc2ccc(=O)oc12,-2.9,0.4,i,0.73,14,15,7.3,/,-0.5,/
Cc1ccc(NC2CCCCC2NS(=O)(=O)c2ccccc2)c(C)c1 (centres undefined),9.1,-0.2,i,0.7,-20,-25,-4.6,5,-0.5,7
Cc1ccc(C2CC(c3ccc(Br)cc3)=NN2C(=O)CSC2=NN3CCCC(=O)N=C3S2)cc1 (centres undefined),2.9,6.4,i,0.69,9,1,3.3,31,1.4,11
O=C(CSc1nnc(-c2ccccn2)o1)Nc1ccccc1C(F)(F)F,-0.3,-0.8,i,0.68,0,-2,-4.0,1,-0.5,-4
COc1cccc(N2CCN(C(=O)c3ccc(-c4ccccc4)cc3)CC2)c1,-1.9,4.4,i,0.72,-29,-32,-7.0,4,-0.4,-1
O=C(Nc1ccc(Cl)cc1)c1ccc(OC2CSC2)cc1,-3.6,6.9,i,0.73,13,16,-13,-10,0.4,-5
CN(C)c1ccc(NC(=S)c2ccccn2)cc1,49*,5.1,i,0.67,-52,-50,-15,7,-9.5,9
CSc1nccc(-c2c(-c3ccc(Cl)cc3)noc2C)n1,2.3,0.4,i,0.62,-23,-41,-6.5,14,0.1,-12
CCn1c(SCC(=O)NNC(=O)c2ccccc2)nnc1-c1ccco1,-1.8,2.8,i,0.7,10,10,-3.3,-7,0.4,-2
CCOC(=O)c1ccc(NC(=O)c2nc[nH]c2C(=O)N2CCc3ccccc3C2)cc1,-12,/,i,/,8,10,4.5,-13,0.4,-3
COc1ccc(N=Nc2ccc(O)c(P(=O)(c3ccccc3)c3ccccc3)c2)cc1,-7.1,6.0,i,0.7,9,10,3.5,6,0.6,0
O=C1CC(c2cccc(Cl)c2)CC(O)=C1C=Nc1ccccc1 (centres undefined),/,0.5,/,0.66,/,/,/,-21,-0.3,-14
COc1ccc(CN2CCNC(=O)C2CC(=O)NC2CC(C)(C)CC(C)(C)C2)cc1OC (centres undefined),5.9,1.5,i,0.75,9,5,8.4,-18,0.6,-3
Cc1ccc(C(=C2C3C=CC2C2C(=O)NC(=O)C32)c2ccc(C)cc2)cc1 (centres undefined),/,4.8,/,0.74,/,/,/,32,-0.4,-3
Cn1cc(S(=O)(=O)NCc2ccc(Cl)cc2)c(=O)n(C)c1=O,-23,3.1,i,0.66,4,-2,-3.9,0,-0.7,4
O=C(c1cnccn1)N(c1ccccc1)C1(C(=O)NC2CCCCC2)CCCCC1,/,1.2,/,0.64,/,/,/,11,-0.3,-6
O=c1[nH][nH]c(-c2ccccc2O)c1C(C[N+](=O)[O-])c1cccc(Cl)c1 (centres undefined),-0.9,1.1,i,0.72,/,/,/,33,0.5,6
CCC(Sc1nc2ccccc2[nH]1)C(=O)Nc1ccc(NC(C)=O)cc1 (centres undefined),-0.7,0.2,i,0.71,14,13,3.0,-7,-0.1,0
CCO[C@H]1OC(C(=O)NCc2ccccc2)=C[C@@H](C(C)(C)C)[C@@H]1CCCO,-1.8&-6.7,1.1,i,/,-2,-10,13,1,0.3,0
CNC(=O)NC(=O)C(C)Oc1ccccc1F (centres undefined),-3.4,-0.1,/,0.68,11,10,0.8,-11,2.5,-7
COCCCn1c(SCc2nnc(-c3ccc(OC)c(OC)c3)o2)nc2ccccc2c1=O,/,4.0,/,0.66,/,/,/,14,0.3,0
CCOC(=O)C1=C(C)N(CCCC(=O)O)C(=O)NC1c1ccc(C(F)(F)F)cc1 (centres undefined),-1.3,/,i,/,-4,1,3.8,-11,/,/
COc1cccc(NC2c3ccccc3C(=O)N2Cc2ccccc2Cl)c1 (centres undefined),11,5.5,i,0.65,-9,-22,-10,2,1.4,-2
Cc1oc2c(O)c(O)ccc2c(=O)c1-c1ccc(Cl)cc1,-0.3,1.7,i,0.64,-16,-15,-0.4,-10,1.2,-2
COc1cccc(CNC(=O)CCCCCn2c(=S)[nH]c3ccc(N4CCOCC4)cc3c2=O)c1,-2.5,-62,i,0.73,-17,-15,-13,1,0.8,3
COc1ccc(CCn2c(C)cc(C(=O)COC(=O)c3cnccn3)c2C)cc1,1.3,3.8,i,0.7,-10,-7,-2.5,3,0.5,-8

At a glance, part of the list above.
Structure,AF4-AF9 inh,UCH37 DUB inh,FGF22 binding,Ecoli growth,rRNA inh HTS,rRNA inh HTS OD600,rRNA inh HTS RFP,T cruzi inh,Bfl-1 A1 inh,Beta apoptosis
COc1cccc(NC2c3ccccc3C(=O)N2Cc2ccccc2Cl)c1 (centres undefined),11,5.5,i,0.65,-9,-22,-10,2,1.4,-2
Cc1oc2c(O)c(O)ccc2c(=O)c1-c1ccc(Cl)cc1,-0.3,1.7,i,0.64,-16,-15,-0.4,-10,1.2,-2
COc1cccc(CNC(=O)CCCCCn2c(=S)[nH]c3ccc(N4CCOCC4)cc3c2=O)c1,-2.5,-62,i,0.73,-17,-15,-13,1,0.8,3
COc1ccc(CCn2c(C)cc(C(=O)COC(=O)c3cnccn3)c2C)cc1,1.3,3.8,i,0.7,-10,-7,-2.5,3,0.5,-8

(more compounds)
Structure,AF4-AF9 inh,UCH37 DUB inh,FGF22 binding,Ecoli growth,rRNA inh HTS,rRNA inh HTS OD600,rRNA inh HTS RFP,T cruzi inh,Bfl-1 A1 inh,Beta apoptosis
CCCNC(=O)C1CC(=O)N(c2ccc(OCc3ccc(Cl)cc3)cc2)C1 (centres undefined),5.4,-1.6,i,0.67,0,10,-0.2,0,-6.3,/
C=CCn1c(SCc2cc(=O)n3ccsc3n2)nc2cc(Cl)ccc2c1=O,-2.3,1.4,i,0.69,14,14,4.0,15,-1.4,-2
N#CC(=C1SC=CS1)c1nc(-c2ccccc2)cs1,14,0.4,i,0.67,2,-1,57,15,-0.1,10
COc1ccc(C)cc1NC(=O)c1ccc(NC(=O)CC2SC(N3CCCC3)=NC2=O)cc1 (centres undefined),/,-5.5,/,0.73,/,/,/,-5,0.1,-1
CC(c1ccncn1)N(C)Cc1nc(-c2ccc(C(F)(F)F)cc2)no1 (centres undefined),-1.2,1.3,i,0.69,19,10,1.6,-6,0.1,-9
CC(OC(=O)CNC(=O)c1ccco1)C(=O)N(C)c1ccccc1 (centres undefined),-0.4,0.4,i,0.63,11,4,-0.5,-2,-0.3,-1
NC(=O)C1CCN(Cc2nnnn2Cc2ccco2)CC1,/,-2.0,/,0.69,7,6,4.2,-4,-0.6,-5
CCC(C)NC(=O)C1c2ccccc2Oc2ccccc21 (centres undefined),/,2.2,i,0.69,1,10,-0.6,6,1.2,-5

Looked up above:
rRNA inh HTS result of `CC(OC(=O)CNC(=O)c1ccco1)C(=O)N(C)c1ccccc1` (centres undefined) = 11
rRNA inh HTS OD600 result of `CCC(C)NC(=O)C1c2ccccc2Oc2ccccc21` (centres undefined) = 10
Beta apoptosis result of `CC(c1ccncn1)N(C)Cc1nc(-c2ccc(C(F)(F)F)cc2)no1` (centres undefined) = -9
UCH37 DUB inh result of `NC(=O)C1CCN(Cc2nnnn2Cc2ccco2)CC1` = -2.0
rRNA inh HTS RFP result of `N#CC(=C1SC=CS1)c1nc(-c2ccccc2)cs1` = 57
